MT1-MMP act inh: inhibitors of human MT1-MMP activation; HT1080 RFP-PRO-GFP cells, GFP/RFP ratio fluorescence, overnight; percent of plate control window, DMSO zero; GFP/RFP ratio change, % at 20 µM; actives 0.061% (n = 360,000); AID 651647;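 active = GFP/RFP ratio change of at least 30% with cell ATP level not reduced by more than half and red fluorescence within 50% of control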; note: strong numbers were not always called active
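Assay system: HT1080 RFP-PRO-GFP cells | Dosing: 20 µM single dose, 1% DMSO | Incubation: Cells overnight before dosing, compound overnight, 37 °C, 5% CO2 | Evaluation: GFP/RFP fluorescence ratio | Control set: DMSO-only wells and HT1080 RFP-L50D-GFP cell wells as references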
eIF4H inh: inhibitors of RNA binding by human eIF4H. Q15056. eIF4H fluorescence polarization binding assay. inhibition, % at 35 µM. actives 0.94% (n = 290,000). AID 2012;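 active = 50% or more with normal probe brightness, or confirmed in later tests; inconclusive = above 50% with abnormal brightness, or retests that disagree; inactive = below 50% or failed in later tests; about a fifth of its hits are not listed in these tables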;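 note: calls also rest on retests at 20 µM and on dose response follow-up; 0% = protein and probe with vehicle and 100% = probe without protein; strong numbers were not always called active; many hits fall short of the cut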
Rce1 inhib: inhibitors of yeast Ras-converting enzyme; yeast membranes, quenched prenylated peptide cleavage fluorescence; Q03530; calls only; AID 2563; actives 0.27% (n = 290,000);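 active = fall in fluorescence gain of 50% or more versus controls, with final raw signal at or below 3038400; inconclusive = same 50% fall but final raw signal above 3038400; inactive = fall in fluorescence gain under 50%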;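 note: plate controls were neutral control wells for no effect and wells lacking membranes for full effect; tested at 10 µM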
CSC inhib: blocks cancer stem cells | cancer stem cell-like cells viability, luminescence | inhibition, % at 7.5 µM | actives 1.1% (n = 300,000);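 active = mean at 75% or more and at least half the replicates too; inconclusive = mean and replicates disagree; tested in HMLE shEcad cells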;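 note: 0% = median of negative and 100% = median of positive control wells; the first replicate is given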
Yeast UUG start: modulators of start codon recognition fidelity in yeast | activity score, % at 18.7 µM | S. cerevisiae UUG-firefly luciferase reporter, luminescence/redox ratio | AID 602363 | actives 0.13% (n = 350,000);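 active = replicate mean at a twofold rise or more, about +100% in these data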;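 note: firefly luciferase made from a UUG start codon reports start codon fidelity; reporter light over untreated wells divided by growth signal over untreated wells; some hits fall short of that in this replicate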
PABP FP inh: blocks human PABP binding to poly(A) RNA; P11940; fluorescence polarization; inhibition, % at 35 µM; actives 1% (n = 290,000); AID 2014;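 active = 50% or more with normal probe brightness, or confirmed in later tests; inconclusive = above 50% with abnormal brightness, or retests that disagree; inactive = below 50% or failed in later tests; about a fifth of its hits are not listed in these tables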;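 note: calls also rest on retests at 20 µM and on dose response follow-up; controls were probe without protein and protein plus probe with vehicle; some compounds called inactive have numbers as strong as hits; many hits fall short of the cut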
Target sequence (P11940 whole entry, looked up): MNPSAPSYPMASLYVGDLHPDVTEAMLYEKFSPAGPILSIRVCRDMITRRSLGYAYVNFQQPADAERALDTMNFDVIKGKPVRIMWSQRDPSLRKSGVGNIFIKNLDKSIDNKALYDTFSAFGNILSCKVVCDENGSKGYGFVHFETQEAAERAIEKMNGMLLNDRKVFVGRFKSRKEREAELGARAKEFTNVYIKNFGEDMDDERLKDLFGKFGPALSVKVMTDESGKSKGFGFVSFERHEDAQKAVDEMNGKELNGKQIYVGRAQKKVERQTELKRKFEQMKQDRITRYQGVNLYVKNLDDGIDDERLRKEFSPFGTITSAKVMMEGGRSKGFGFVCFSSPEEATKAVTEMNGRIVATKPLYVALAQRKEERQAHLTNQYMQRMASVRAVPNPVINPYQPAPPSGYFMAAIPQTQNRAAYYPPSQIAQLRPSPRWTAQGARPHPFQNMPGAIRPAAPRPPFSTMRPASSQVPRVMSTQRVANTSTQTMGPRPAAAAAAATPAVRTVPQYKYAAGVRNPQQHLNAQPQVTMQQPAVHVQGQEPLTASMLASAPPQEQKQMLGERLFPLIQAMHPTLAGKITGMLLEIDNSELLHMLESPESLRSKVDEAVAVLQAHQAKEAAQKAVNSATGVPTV
Env fusion inh: HIV envelope-mediated fusion inhibition; actives 1.1% (n = 360,000); HeLa-JRFL Env/CEM21 cell fusion, luciferase; inhibition, % at 12.3 µM;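 active = mean replicate inhibition score of at least 50 and every replicate individually at or above 50; inconclusive = only one of the two criteria met; inactive = mean below 50 and not all replicates reaching 50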;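 note: 0% = plate neutral controls and 100% = maraviroc near 300 nM; one replicate is shown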
eIF4H inh retest: further read-out of eIF4H inh, marked with its call; inhibition, %; compound at 20 µM; confirmation average;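 mean of two retest wells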
PABP FP inh retest: further read-out of PABP FP inh, marked with its call; inhibition, %; compound at 20 µM; confirmation repeats;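 mean of two retest wells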
MT1-MMP act inh RFP: also measured in MT1-MMP act inh; calls as there; RFP signal change, %; measured here: RFP expression control read;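 0 = vehicle wells; hits needed this value within 50% of zero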
Numbers without * were called inactive; i = inactive; ? = inconclusive; . = not tested or not shown; & = joins results of further samples. The list is partial; rates above refer to the full screens.

Preview:
SMILES	MT1-MMP act inh	MT1-MMP act inh RFP	eIF4H inh	Rce1 inhib	CSC inhib	Yeast UUG start	PABP FP inh	Env fusion inh	others
Cc1cc(C)c2nc(C(F)(F)F)nc(N3CC(C)OC(C)C3)c2c1 (stereo not given)	0	-10	-2	i	6	-7	7	18
Cc1c(NC(=O)c2nn3c(C(F)(F)F)cc(-c4ccccc4)nc3c2Br)c(=O)n(-c2ccccc2)n1C	-4	-5	-9	i	-17	.	10	4
CC(=O)c1cccc(NC(=O)C2Cc3c(-c4ccc5c(c4)OCO5)ccnc3O2)c1 (stereo not given)	-2	-24	.	.	.	-1	.	3
COc1ccc(NC(=O)c2ccccc2CC[N+](=O)[O-])cc1	2	3	-13	i	-12	-21	-1	-11
CC1CC(C)CN(C(=O)c2ccc3c(c2NCCO)C(=O)c2ccccc2C3=O)C1 (stereo not given)	60*	20*	6	i	2	13	10	16
O=C(C(O)c1ccc(Br)cc1)N1CCC(Nc2ccc3[nH]ncc3c2)CC1 (stereo not given)	4	1	.	.	.	-39	.	8

The listing (from the top)
SMILES	MT1-MMP act inh	MT1-MMP act inh RFP	eIF4H inh	Rce1 inhib	CSC inhib	Yeast UUG start	PABP FP inh	Env fusion inh	others
Cc1cc(C)c2nc(C(F)(F)F)nc(N3CC(C)OC(C)C3)c2c1 (stereo not given)	0	-10	-2	i	6	-7	7	18
Cc1c(NC(=O)c2nn3c(C(F)(F)F)cc(-c4ccccc4)nc3c2Br)c(=O)n(-c2ccccc2)n1C	-4	-5	-9	i	-17	.	10	4
CC(=O)c1cccc(NC(=O)C2Cc3c(-c4ccc5c(c4)OCO5)ccnc3O2)c1 (stereo not given)	-2	-24	.	.	.	-1	.	3
COc1ccc(NC(=O)c2ccccc2CC[N+](=O)[O-])cc1	2	3	-13	i	-12	-21	-1	-11
CC1CC(C)CN(C(=O)c2ccc3c(c2NCCO)C(=O)c2ccccc2C3=O)C1 (stereo not given)	60*	20*	6	i	2	13	10	16
O=C(C(O)c1ccc(Br)cc1)N1CCC(Nc2ccc3[nH]ncc3c2)CC1 (stereo not given)	4	1	.	.	.	-39	.	8
COc1ccc(CCNC(=O)c2nnn(-c3cccc(C)c3)c2N)cc1OC	1	-3	2	i	-9	-9	-1	-4
Cc1nn(C)c(C)c1NC(=O)c1ccc(Cl)cc1	-1	-3	-2	i	-14	-24	-2	.
CN(C(=O)COC(=O)C1=COCCO1)C1(C#N)CCCCC1	-1	1	.	.	-6	-19	.	.
O=C(O)c1cccnc1-c1ncccc1C(=O)O	-1	1	-1	i	-8	-15	-2	.
CC1(C)CC(=O)C(=Cc2cn(CCC#N)nc2-c2ccc(Cl)cc2)C(=O)C1	-1	3	-11	.	-1	.	-4	-19
Cc1cccc(C)c1NC(=S)N/N=C/c1c(Cl)cccc1Cl	2	6	9	i	-6	.	-6	-14
C=CCOC(=O)C1=C(C)NC(=O)NC1/C=C/c1ccccc1OC (stereo not given)	3	1	-1	i	-2	1	-9	4
O=[N+]([O-])c1ncn(C23CC4CC(CC(C4)C2)C3)n1	13	-1	-1	i	-1	.	-3	-5
COc1ccc(CCNC(=O)Cc2cccs2)cc1OC	-2	3	-4	i	.	.	-8	2

Gathered by group, the entries above containing a halogen
SMILES	MT1-MMP act inh	MT1-MMP act inh RFP	eIF4H inh	Rce1 inhib	CSC inhib	Yeast UUG start	PABP FP inh	Env fusion inh	others
Cc1cc(C)c2nc(C(F)(F)F)nc(N3CC(C)OC(C)C3)c2c1 (stereo not given)	0	-10	-2	i	6	-7	7	18
Cc1c(NC(=O)c2nn3c(C(F)(F)F)cc(-c4ccccc4)nc3c2Br)c(=O)n(-c2ccccc2)n1C	-4	-5	-9	i	-17	.	10	4
O=C(C(O)c1ccc(Br)cc1)N1CCC(Nc2ccc3[nH]ncc3c2)CC1 (stereo not given)	4	1	.	.	.	-39	.	8
Cc1nn(C)c(C)c1NC(=O)c1ccc(Cl)cc1	-1	-3	-2	i	-14	-24	-2	.
CC1(C)CC(=O)C(=Cc2cn(CCC#N)nc2-c2ccc(Cl)cc2)C(=O)C1	-1	3	-11	.	-1	.	-4	-19
Cc1cccc(C)c1NC(=S)N/N=C/c1c(Cl)cccc1Cl	2	6	9	i	-6	.	-6	-14

Further entries
SMILES	MT1-MMP act inh	MT1-MMP act inh RFP	eIF4H inh	Rce1 inhib	CSC inhib	Yeast UUG start	PABP FP inh	Env fusion inh	others
CCN(CC)Cc1c[nH]c2c(C(=O)OC)cccc12	0	2	-2	i	.	-9	-2	-12
CCC/C(=N\NC(=O)CNC(=O)/C=C/c1ccco1)c1ccccc1	1	2	1	i	3	-11	-11	-18
Cc1cccc(N2CCN(C(=O)CCS(=O)(=O)c3ccc4c(c3)oc(=O)n4C)CC2)c1C	5	-7	8	i	2	6	0	12
O=C(NCCc1ccc(Cl)cc1Cl)C1=CC=CN2CCS(=O)(=O)N=C12	-3	-2	.	.	-5	-12	.	1
O=C(CN1CCN(c2nc(-c3ccccc3)cs2)CC1)NNC(=O)c1ccco1	-8	-7	-6	i	.	11	-10	1
COc1ccc2c(CC#N)c[nH]c2c1	5	-3	2	.	1	-11	?	-28
O=C(/N=C1/c2ccccc2CN1c1ccccc1)Nc1ccccc1	0	5	-2	i	-1	.	33	-14
CCCOc1ccc(N2C(=O)CC(SCc3nc4ccccc4[nH]3)C2=O)cc1 (stereo not given)	1	4	-9	i	9	.	-3	13
O=C(NCC1CCCO1)/C(=C/c1ccccc1)NC(=O)c1ccccc1 (stereo not given)	2	9	1	i	.	5	5	15
COc1ccc(CC(=O)N/N=C(\C)c2cccc(NC(=O)C3CC3)c2)cc1	5	3	3	i	.	-5	-5	-4
Fc1ccccc1NC(=S)N1CCC(c2ccccc2)C1 (stereo not given)	3	-17	-9	i	-6	-15	0	-49
CCC(=O)c1ccc(OCC(=O)NCCCN2CCOCC2)cc1	-1	5	.	.	.	-17	.	-42
CS(=O)(=O)Nc1ccc(C(=O)NCc2cccnc2)cc1	2	3	8	i	-18	-9	6	.
Cc1ccc(S(=O)(=O)N2CCOC2CNC(=O)C(=O)NCCc2c[nH]c3ccccc23)cc1 (stereo not given)	-1	-9	-4	i	-5	.	-2	7
O=[N+]([O-])c1ccc(CN2CCN(c3ccc([N+](=O)[O-])cc3)CC2)cc1	-8	-31	10	i	10	-11	15	22
COc1cccc(C2/C(=C(/O)c3ccccc3)C(=O)C(=O)N2CCCC(=O)O)c1 (stereo not given)	1	4	0	.	.	-7	2	.
COc1cc(Br)cc(CN2CCN(c3ncccn3)CC2)c1O	0	-1	-11	i	35	4	8	-8
COc1ccc(CCNC(=O)CN2C(=O)COc3ccc(S(=O)(=O)N4CCCC4)cc32)c(OC)c1	0	0	-8	i	-4	-2	-1	12
CC(O)c1nc2ccccc2n1Cc1ccc([N+](=O)[O-])cc1 (stereo not given)	-4	-3	-19	i	-6	-17	3	-6
Cc1ccc(Nc2c(-c3ccccn3)nc3ccc(C)cn23)cc1	8	-17	4	i	112*	-37	19	15
CN(C)[C@@H]1C(=O)C(C(N)=O)=C(O)[C@@]2(O)C(=O)C3=C(O)c4c(O)ccc(Cl)c4[C@@H](O)[C@H]3C[C@@H]12	-4	3	97	i	-14	-21	-6	72*	eIF4H inh retest=-7;PABP FP inh retest=0
CCC(CO)Oc1cc(NC(=O)Cc2ccccc2F)c2ncn(C(C)C)c2c1 (stereo not given)	-1	-3	.	.	.	16&-15	.	-88
CCN1C(=O)c2ccc(C(=O)NCc3ccco3)cc2C1=O	-6	-1	0	.	-16	-30	2	-180
COc1ccc(OCCC(=O)NC2CCCCC2)cc1	-4	1	-3	i	-8	.	?	8
O=C(O)C1C2C=CC(O2)C1C(=O)Nc1ccccn1 (stereo not given)	2	-1	.	.	.	-3	.	5
Cc1onc(-c2ccccc2)c1C(=O)OCC(=O)NC(C)c1ccc(Cl)cc1 (stereo not given)	1	-13	.	.	12	.	.	6
NC1=NC(=Nc2cccc(S(N)(=O)=O)c2)c2ccccc21	-2	-2	-11	i	5	-13	2	-5
CCOc1ccc(S(=O)(=O)N2CCCC2)cc1	5	4	-7	i	8	-4	1	-29
Cc1[nH]nc(-c2ccc(O)c(C)c2O)c1-c1cnn(-c2ccccc2)c1	-2	-3	-4	i	10	-17	-6	.
COc1ccc(NC(=O)CN(C)C(=O)C(C)Oc2ccc(Br)cc2)cc1 (stereo not given)	1	0	.	i	-8	12	.	5
Cc1ccc(C(=O)N2CC(C)SC2=Nc2cccc(S(=O)(=O)N(C)C)c2)cc1 (stereo not given)	-2	0	-8	i	-8	10	-9	-2
O=C(c1ccc(Cl)cc1)C(CN1CCCCC1)c1ccccc1 (stereo not given)	-2	-7	4	i	95*	-10	3	-107
COc1cc2c(cc1NC(=O)Nc1ccccc1)oc1ccccc12	-1	-5	?	i	-17	-13	?	.
Cc1occc1-c1nnc(SCc2cc(=O)n3cc(Br)ccc3n2)n1C	.	.	-1	.	-15	.	0	-28
COc1cc(CN(C2CCCCC2C)S(=O)(=O)c2ccc(S(=O)(=O)NC3CC3)cc2)cc(OC)c1OC (stereo not given)	-8	-10	6	i	4	-14	-10	-19
O=C(CN1C(=O)NC2(CCc3ccccc32)C1=O)Nc1ccc(Br)cc1F (stereo not given)	2	5	.	.	.	-11	.	-7
O=C(Nc1ccc2c(c1)OCCO2)c1ccccn1	-1	7	-8	i	32	-70	-14	29
CCOC(=O)C1CCCN(c2oc(-c3ccc(F)cc3)nc2C#N)C1 (stereo not given)	0	4	1	i	.	-11	-3	11
CCN1C(=O)NC(c2cc(Br)ccc2OC)C(C(=O)OC)=C1C (stereo not given)	-3	-2	2	.	-8	-26	0	.
O=C(CSc1n[nH]c(=O)n1-c1cccnc1)Nc1ccccc1Cl	-1	4	-7	i	2	-13	5	5
CN(C)C(CNC1CC(C)(C)NC(C)(C)C1)c1cccc(F)c1 (stereo not given)	-2	0	-2	i	-11	-17	13	-8
CC1(C(=O)N/N=C/c2ccccc2)CC1(Cl)Cl (stereo not given)	-5	2	-2	i	-8	11	0	-15
CCc1ccc(-c2nc(SCC(=O)N(CCOC)c3c(N)n(Cc4ccccc4)c(=O)[nH]c3=O)n[nH]2)cc1	2	2	-9	i	-1	-2	9	.
CCC(=O)N1CCC1(C)C(=O)Nc1ccccc1 (stereo not given)	2	5	.	.	.	-15	.	-5
Cc1ccc(S(=O)(=O)N(C)C)cc1NC(=O)/C=C/c1cccs1	-9	-4	11	i	-8	-19	4	1
Cn1c(SCC(=O)N2CCCC2)nnc1-c1ccc2c(c1)OCO2	2	4	-11	i	.	-1	-4	6
Fc1ccccc1COc1ccc(/C=N/n2cnnc2)cc1	0	-4	-9	i	-3	-22	-2	-27
COC(=O)c1ccc(-n2cnc3ccccc32)nc1	-6	-2	6	i	-18	.	10	-2
CC(C)NC(=O)Cn1c(SCC(=O)N2c3ccccc3CC2C)nc2ccccc21 (stereo not given)	-4	-2	-10	i	-20	-11	-4	-52
O=C1CN2C(=Nc3ccc(Br)cc3C2c2ccccc2)CCN1 (stereo not given)	1	-2	-3	i	-3	.	0	.
Cc1ccc(OCc2nnnn2-c2ccccc2)cc1	1	0	-5	i	2	.	-4	.
CC(=O)N/C(=C/C(C)C)c1ccccc1	2	6	.	.	-5	6	.	0
COc1ccc(CN(CC(=O)NCc2ccco2)C(=O)CCC(=O)Nc2ccccn2)cc1	6	6	-8	i	.	-14	4	.
COc1ccc(/C=N/NC(=O)C(=O)/C=C2\NC3(CCCC3)Cc3ccccc32)cc1	-6	-11	2	i	29	.	-1	13

Compound activity: PubChem BioAssay, several laboratories
